Screening results (PubChem BioAssay)
Mtb growth: M. tuberculosis H37Rv growth inhibitors, H37Rv strain (AID 1626). M. tuberculosis H37Rv growth inhibition; higher % means a stronger effect. 220,000 tested, 0.95% active. one-dose inhibition, % at 10 µM; IC50 in µM for titrated hits;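 active means confirmed in a dose series; inconclusive means inhibition above 80% but not taken into the dose series; inactive means below 80% or under 30% at every dose of the series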;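 further: bacteria incubated seven days before Alamar blue readout; 0% = bacteria only wells and 100% = bacteria with antibiotic wells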
RecA splice inh: inhibitors of M. tuberculosis RecA intein splicing; cell-free RecA intein splicing, fluorescence; inhibition, %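 (about 9 µM by stock and volumes)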; 290,000 tested, 0.75% active; in the data active means inhibition above about 30%; inconclusive means no clear call, values can overlap the other calls;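 further: 0% = vehicle wells and 100% = reference inhibitor control wells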
Target sequence (P9WHJ3 whole entry, looked up, canonical isoform): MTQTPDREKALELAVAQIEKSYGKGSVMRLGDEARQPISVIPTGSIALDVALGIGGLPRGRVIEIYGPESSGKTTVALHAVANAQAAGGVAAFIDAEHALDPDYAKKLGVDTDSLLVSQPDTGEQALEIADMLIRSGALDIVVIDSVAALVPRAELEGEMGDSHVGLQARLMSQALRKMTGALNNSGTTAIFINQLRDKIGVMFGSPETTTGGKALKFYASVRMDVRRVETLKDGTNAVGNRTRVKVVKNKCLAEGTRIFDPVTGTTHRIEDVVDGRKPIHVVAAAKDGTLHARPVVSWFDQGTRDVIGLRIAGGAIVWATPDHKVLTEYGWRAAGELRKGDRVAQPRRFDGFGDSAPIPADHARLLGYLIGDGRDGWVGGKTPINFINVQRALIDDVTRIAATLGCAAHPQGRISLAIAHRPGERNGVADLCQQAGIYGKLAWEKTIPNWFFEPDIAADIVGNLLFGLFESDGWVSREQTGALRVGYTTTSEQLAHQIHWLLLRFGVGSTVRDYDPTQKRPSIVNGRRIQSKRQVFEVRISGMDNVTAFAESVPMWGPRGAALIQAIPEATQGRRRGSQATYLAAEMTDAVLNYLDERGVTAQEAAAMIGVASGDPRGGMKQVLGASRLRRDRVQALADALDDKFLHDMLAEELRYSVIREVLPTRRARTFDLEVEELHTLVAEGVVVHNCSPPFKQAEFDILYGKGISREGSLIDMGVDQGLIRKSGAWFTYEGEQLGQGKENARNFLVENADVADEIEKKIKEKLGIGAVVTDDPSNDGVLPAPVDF
Arbovirus anti: blocks arbovirus infection | arbovirus infection cell-based antiviral screen | inhibition, % at 10 µM | 200,000 tested, 0.37% active | AID 1251;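 active means inhibition from about 30%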;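 further: bluetongue infection of BSR cells; cell survival read as ATP light after 72 h; 0% = infected wells without compound and 100% = uninfected wells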
Mtb bLac sens: beta-lactam sensitization of Mtb H37Rv. M. tuberculosis H37Rv growth with meropenem, percent inhibition; hits of this screen are not shown here. inhibition, % at 25 µM. 330,000 tested, 0.27% active. AID 434955;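 active means about 74% or more and at least 40 points above the plate without the antibiotic, then above 30% in a dose series; inconclusive means first-round hits that could not be retested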;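 further: growth measured after seven days incubation then overnight dye step; 0% = bacteria only wells and 100% = bacteria with antibiotic; twin plates without the antibiotic show which effects depend on it; some results filed as inactive read as strong as hits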
YopH inh: inhibitors of Yersinia enterocolitica YopH tyrosine phosphatase | fluorescence Ex485/Em525 | inhibition, %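 (about 10 µM by stock and volumes)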 | 140,000 tested, 0.16% active | AID 898;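 active means inhibition of 50% or more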;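 further: controls were vehicle for no effect and minimum signal wells for full effect; inactives centre near -20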
Arbovirus anti repeat: recorded beside Arbovirus anti, whose call it bears; inhibition, %; measured here: 10K subset replicate screen; many hits read low in the repeat;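 first of two repeat runs on a subset; 0% = infected and 100% = uninfected wells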
* hit, by the source's call; ? = inconclusive; nt = not tested or not shown.

SMILES	Mtb growth	RecA splice inh	Arbovirus anti	Mtb bLac sens	YopH inh	others
CCC(=O)N1CCc2cc(S(=O)(=O)N3CCN(c4ccccc4)CC3)ccc21	nt	5.5	nt	-6	nt
CNC(=S)N/N=C/c1ccc(-c2ccc(Cl)c([N+](=O)[O-])c2)o1	-4%	0.6	-9	-4	nt
Cc1ccccc1C1CC(c2ccc(Br)cc2)Nc2nc(N)nn21 (stereo not given)	0%	0.6	18	?	-15
CC1CCCN(Cc2nc3c(c(=O)n(C)c(=O)n3C)n2Cc2c(F)cccc2Cl)C1 (stereo not given)	17%	1.5	13	4	-28	Arbovirus anti repeat=-6
COc1ccc(C(=O)COc2ccc3c(C)cc(=O)oc3c2)cc1	nt	-1.5	nt	6	nt
CC1CCCN(C(=S)Nc2ccc(Nc3ccccc3)cc2)C1 (stereo not given)	48%	0.5	-8	3	nt
COc1ccc(OC)c(NC(=S)N2c3ccccc3CC2C)c1 (stereo not given)	nt	9.6	nt	4	nt
O=C(CCN1C(=O)/C(=C/c2ccccc2Cl)SC1=S)NCCc1ccc(O)cc1	nt	0.3	nt	4	nt
Cc1ccc(CN(N=Nc2nonc2N)c2nonc2N)c(C)c1	-4%	1.6	-12	-12	6
COc1ccc(-c2cn3c(C)c(C(=O)NCc4ccc5c(c4)OCO5)sc3n2)cc1	11%	0.9	-13	10	-39	Arbovirus anti repeat=-7
O=C(CSCC(=O)OCC(=O)c1ccc(Br)cc1)Nc1cccc2ccccc12	-14%	-1.5	10	9	-32
Cc1cc(C(=O)NNC(=S)Nc2ccccc2)nn1C	-8%	-2.1	-6	2	nt
S=C(NCc1ccc(Cl)cc1)Nc1ccc(Cl)cc1Cl	2%	2.8	8	4	-30
NS(=O)(=O)c1ccc(NC(=O)CSc2nc3ccccc3n2-c2ccccc2)cc1	-1%	6.7	-12	2	-36
COc1ccc(C(=O)Nc2ccc(Cl)cc2C(=O)N2CCOCC2)cc1	nt	-4.0	nt	-6	nt

The final two entries of the part above are carried over, then new ones follow:
SMILES	Mtb growth	RecA splice inh	Arbovirus anti	Mtb bLac sens	YopH inh	others
NS(=O)(=O)c1ccc(NC(=O)CSc2nc3ccccc3n2-c2ccccc2)cc1	-1%	6.7	-12	2	-36
COc1ccc(C(=O)Nc2ccc(Cl)cc2C(=O)N2CCOCC2)cc1	nt	-4.0	nt	-6	nt
Cn1c(Cc2nc3ccccc3n2C)nc2ccccc21	nt	1.9	nt	38	nt
CC(OC(=O)CNC(=O)COc1ccccc1)C(=O)N(C)Cc1ccccc1 (stereo not given)	nt	-0.6	nt	-7	nt
O=C1CC(N2CCCCCC2)C(=O)N1c1ccc2c(c1)OCO2 (stereo not given)	-8%	29	-1	3	-3
Cc1ccc(N2C(=O)[C@@H]3C(C(=O)CN4C(=O)c5ccccc5C4=O)=NN[C@@H]3C2=O)c(C)c1	-4%	0.5	nt	-6	nt
O=C(CSCc1ccccc1Br)NC1CC1	-8%	2.8	-1	-2	-13
CCc1cc2c3c([nH]c2cc1S(=O)(=O)N1CCC2(CC1)OCCO2)CCCC3=O	nt	-0.1	nt	7	nt
CCCCCCCCCC[n+]1cccc(C(=O)N(CC)CC)c1	6%	4.6	6	-6	-8
O=C(Nc1ccc(N2CCCC2)c(S(=O)(=O)Nc2cccc(C(F)(F)F)c2)c1)c1cccs1	2%	2.2	0	8	-28
CC(NCc1ccc2c(c1)OCO2)C(=O)N1CCc2ccccc21 (stereo not given)	3%	0.2	0	-2	-34
CC(C)c1nc(Cl)c(C#N)c2c1CSC(C)(C)C2	1%	-0.6	-3	1	-21
COc1ccc(-c2cc(-c3ccccc3)[n+](C)c(-c3ccccc3)c2)cc1	2%	-1.0	3	2	nt
CCOc1cc(C(=O)N2CCCC2)cc(OCC)c1OCC	-13%	-1.5	1	-6	6
O=C(NCCCO)C(=O)Nc1ccc2c(c1)N(S(=O)(=O)c1cccs1)CCC2	nt	0.6	nt	-1	nt
N/C(Cc1ccc(Cl)cc1Cl)=N\OC(=O)Cc1cccs1	5%	3.9	-7	-2	-20
Cc1ccc(C)c(NC(=O)c2ccc[n+](Cc3ccc([N+](=O)[O-])cc3)c2)c1	14%	1.2	0	-6	-21

Quoted at random: 4 entries already listed.
SMILES	Mtb growth	RecA splice inh	Arbovirus anti	Mtb bLac sens	YopH inh	others
CCCCCCCCCC[n+]1cccc(C(=O)N(CC)CC)c1	6%	4.6	6	-6	-8
Cn1c(Cc2nc3ccccc3n2C)nc2ccccc21	nt	1.9	nt	38	nt
CC(NCc1ccc2c(c1)OCO2)C(=O)N1CCc2ccccc21 (stereo not given)	3%	0.2	0	-2	-34
Cc1ccc(N2C(=O)[C@@H]3C(C(=O)CN4C(=O)c5ccccc5C4=O)=NN[C@@H]3C2=O)c(C)c1	-4%	0.5	nt	-6	nt

Next part
SMILES	Mtb growth	RecA splice inh	Arbovirus anti	Mtb bLac sens	YopH inh	others
Brc1ccccc1-n1nnc(-c2cccnc2)n1	16%	3.8	0	-1	nt
CCN(CC(=O)N1CCN(Cc2ccccc2)CC1)S(=O)(=O)c1ccc(C)cc1	nt	4.3	nt	-20	nt
CC(C)[C@@H](C(=O)NCC1CCCO1)N1C(=O)N2CCc3c([nH]c4ccccc34)[C@@]2(C)C1=O (stereo not given in full)	nt	-1.3	nt	-4	nt
CC(C)(C)NC(=O)CN(C(=O)CCN1CCCc2ccccc21)C(C)(C)C	0%	-4.9	8	-7	7
CCc1noc(C)c1C(=O)Nc1ccccc1C(C)(C)C	nt	0.6	nt	-15	nt
O=C1C(=O)N(CCN2CCOCC2)C(c2ccc(Cl)cc2)/C1=C(/O)c1ccc(S(=O)(=O)N2CCOCC2)cc1 (stereo not given)	nt	2.8	nt	-2	nt
CC(=O)Nc1cccc(/C(C)=N/N2C(C)CCCC2C)c1 (stereo not given)	nt	-0.8	nt	2	nt
CCOC(=O)CNC(=O)N1CCCC(C(=O)c2cc(C)c(OC)c(C)c2)C1 (stereo not given)	nt	-2.6	nt	-4	nt
O=C1CCN(Cc2ccccc2)CCN1[C@H](CO)c1ccccc1	nt	-1.6	nt	-7	nt
CCc1nc2oc3ccccc3c(=O)c2c(=O)n1Cc1ccccc1	-13%	1.2	-6	-2	2
CSc1cccc(CN2CCCC(CNC(=O)c3ccco3)C2)c1 (stereo not given)	nt	0.0	nt	-2	nt
Cc1nnsc1C(=O)NNC(=O)c1ccc(C(F)(F)F)cc1	-4%	3.3	nt	-4	nt
CCc1ccc2oc(-c3cc(N)ccc3Cl)nc2c1	1%	-0.1	-17	62	-19
COc1ccc(C(=O)O/N=C(/c2ccccc2)c2ccncc2)cc1	-6%	3.1	0	40	nt
CC1CCCCC1NC(=O)CC1Oc2ccccc2NC1=O (stereo not given)	-6%	nt	7	4	1
CCOCC(=O)Nc1nnc(SCCOC)s1	-3%	-0.4	4	3	-39
COC(=O)NNC(=S)NCc1ccc(C)cc1	-7%	0.2	-4	-1	-18
COc1ccc(CN2CCOCCOCCOCC2)cc1	-2%	-2.1	nt	-12	nt
CC(C)N(C(=O)Cn1c(SCC(=O)NC2CC2)nc2ccccc21)C(C)C	nt	-2.9	nt	-9	nt
N#CCc1c(C#N)c(N)nc(N2CCOCC2)c1C#N	-9%	1.9	nt	-17	nt
Cc1cccc(C(=O)NCCCN2CCCC2=O)c1	4%	1.2	7	-6	-11
COc1ccc(C2=NS(=O)(=O)N(C)C(C(=O)NC(C)c3ccccc3)=C2)cc1OC (stereo not given)	nt	1.9	nt	-4	nt
CSc1nnc(-c2cc[n+](C)cc2)n1CCO	23%	7.9	13	-6	-17
CC(=O)c1c(C(C)=O)c(C)n(C(c2ccccc2)c2ccccc2)c1C	-7%	-1.9	-2	-1	nt
Cc1ccccc1NC(=O)OCc1cccnc1Sc1ccc(Cl)cc1	1%	-1.4	8	-8	-13
O=C(O)c1ccc(NCc2ccc(Br)cc2)cc1	4%	-0.3	2	6	nt
Clc1ccc(SCc2cc(-c3ccccc3)on2)cc1	4%	-1.0	8	5	5
O=C(CCCCCn1c(=S)[nH]c2cc3c(cc2c1=O)OCO3)N1CCN(c2ccccc2)CC1	nt	1.2	nt	-11	nt
O=C(O)CSc1c2ccccc2cc2ccccc12	nt	-17	nt	1	nt
O=c1cc(C(F)(F)F)[nH]c2ccc(OC(F)(F)F)cc12	2%	-1.7	nt	-2	nt
CCC(C)[C@H](NC(=O)OC(C)(C)C)c1nnc(SCc2c(C)[nH]c(=O)[nH]c2=O)o1 (stereo not given in full)	-1%	-1.9	5	-5	0
CC(NC(=O)C1CCCN1S(=O)(=O)c1ccc2c(c1)n(C)c(=O)c(=O)n2C)c1ccccc1 (stereo not given)	-4%	-0.2	nt	-2	nt
CCOc1ccc(NC2=NCC(=O)N2Cc2cccs2)cc1	-3%	2.0	10	-14	-2
COCCC(=O)N1CCC(Oc2ccc(C(=O)N3CCCC(OC)C3)cc2)CC1 (stereo not given)	nt	-0.5	nt	0	nt
CC(C)N1CCN(Cc2ccccc2-c2ccco2)CC1CCO (stereo not given)	1%	-0.1	-2	1	nt
Cc1noc(C)c1CSCC(=O)OCc1nc2ccccc2c(=O)n1CC#N	-1%	3.4	-4	-8	-39
COC(=O)C(C)Sc1nc2c(c(=O)[nH]c(=O)n2C)n1CCC(C)C (stereo not given)	-2%	0.8	2	-13	-25
CC(C)CCOc1ccc(C(=O)N2CCCC2C(=O)O)cc1 (stereo not given)	1%	-1.2	9	-3	nt
CC(C)C1N(C(=O)CN2CCCCC2)CCN1S(=O)(=O)c1ccccc1 (stereo not given)	9%	-0.9	1	-5	nt
CCOc1ccc(C(C)NC(=O)C2CCCC2)cc1 (stereo not given)	-4%	-0.6	-10	-1	nt
COc1c2c(nc3occc13)C(CC=C(C)C)(OC)C(=O)C=C2 (stereo not given)	-2%	-3.7	-2	-5	nt
O=C(c1cccc(Cl)c1)N1CCN(c2ncccn2)CC1	nt	0.0	nt	-6	nt
O=C(CCCn1nnnc1CN1CCOCC1)N1CCC(c2ccccc2Cl)C1 (stereo not given)	nt	-0.2	nt	-3	nt
CC(=O)c1ccc(NC(=S)N2CCCC2)cc1	nt	0.5	nt	2	nt
CC(C)n1c(C(O)c2ccc3c(c2)OCO3)nc2ccccc21 (stereo not given)	-1%	1.8	7	6	-38	Arbovirus anti repeat=7
CC(C)(C)OC(=O)N1CCC2(CC1)Oc1ccc(F)cc1C(=O)C21CC(c2ccc(Cl)cc2)=NO1 (stereo not given)	15%	3.0	nt	-2	nt
COc1cc(C=C2C(=O)NC(=O)NC2=O)ccc1OCc1ccc([N+](=O)[O-])cc1	3%	nt	-1	nt	nt
COc1ccc(COn2nnc3ccc(S(=O)(=O)N4CCOCC4)cc32)cc1F	nt	1.9	nt	-3	nt
CCOc1ccc(Br)c(C2(O)CC(C)N(C)CC2C)c1 (stereo not given)	-6%	-5.6	-9	-4	-41
CC1CCN(Cc2nnnn2CCCC(=O)NCCN2CCOCC2)CC1	nt	-1.7	nt	-3	nt
CCOc1ccc(CCNC(=O)COC(=O)c2cccnc2SC)cc1OCC	nt	-2.2	nt	-6	nt
Brc1ccc(OCCCCCN2CCOCC2)cc1	2%	2.3	-6	-6	nt
COC(=O)c1ccccc1NC(=O)CSc1[nH]c(=O)cc(C)c1C#N	-12%	0.6	-3	-5	nt
CC(c1ccccc1)C1NC(C(=O)O)CS1 (stereo not given)	-8%	-1.8	2	-10	-42
Cn1c(=O)c2c(nc(N3CCOCC3)n2C/C=C/c2ccccc2)n(C)c1=O	3%	-1.2	nt	2	nt
O=C(Nc1ccc(Br)cn1)c1coc(=O)c(Br)c1	-6%	1.7	nt	3	nt
COCCN(C(=S)Nc1ccccc1C)C(C)c1ccco1 (stereo not given)	2%	3.5	nt	-6	nt
CN(Cc1c(F)cccc1Cl)C(=O)CNC(=O)c1ccc2c(c1)OCO2	nt	-1.0	nt	1	nt
CCN=c1scc(-c2ccccc2)n1/N=C/c1ccccn1	1%	4.3	29	nt	-18
CCOC(=O)c1c(C)[nH]c(C(=O)OCC(=O)c2c(N)n(C)c(=O)n(C)c2=O)c1C	4%	-1.9	3	-8	nt

In the list so far, five have two or more sulfur atoms:
SMILES	Mtb growth	RecA splice inh	Arbovirus anti	Mtb bLac sens	YopH inh	others
O=C(CCN1C(=O)/C(=C/c2ccccc2Cl)SC1=S)NCCc1ccc(O)cc1	nt	0.3	nt	4	nt
NS(=O)(=O)c1ccc(NC(=O)CSc2nc3ccccc3n2-c2ccccc2)cc1	-1%	6.7	-12	2	-36
O=C(Nc1ccc(N2CCCC2)c(S(=O)(=O)Nc2cccc(C(F)(F)F)c2)c1)c1cccs1	2%	2.2	0	8	-28
O=C(NCCCO)C(=O)Nc1ccc2c(c1)N(S(=O)(=O)c1cccs1)CCC2	nt	0.6	nt	-1	nt
CCOCC(=O)Nc1nnc(SCCOC)s1	-3%	-0.4	4	3	-39

An excerpt (hit frequency here may not be typical).
